PABP FP inh: blocks human PABP binding to poly(A) RNA; fluorescence polarization; 1% of 290,000 active; inhibition, % at 35 µM; P11940;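 active = 50% or more with normal probe brightness, or confirmed in later tests; inconclusive = above 50% with abnormal brightness, or retests that disagree; inactive = below 50% or failed in later tests; about a fifth of its hits are not listed in these tables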;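 note: calls also rest on retests at 20 µM and on dose response follow-up; controls were probe without protein and protein plus probe with vehicle; some compounds called inactive have numbers as strong as hits; many hits fall short of the cut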
Target sequence (P11940 whole entry, looked up): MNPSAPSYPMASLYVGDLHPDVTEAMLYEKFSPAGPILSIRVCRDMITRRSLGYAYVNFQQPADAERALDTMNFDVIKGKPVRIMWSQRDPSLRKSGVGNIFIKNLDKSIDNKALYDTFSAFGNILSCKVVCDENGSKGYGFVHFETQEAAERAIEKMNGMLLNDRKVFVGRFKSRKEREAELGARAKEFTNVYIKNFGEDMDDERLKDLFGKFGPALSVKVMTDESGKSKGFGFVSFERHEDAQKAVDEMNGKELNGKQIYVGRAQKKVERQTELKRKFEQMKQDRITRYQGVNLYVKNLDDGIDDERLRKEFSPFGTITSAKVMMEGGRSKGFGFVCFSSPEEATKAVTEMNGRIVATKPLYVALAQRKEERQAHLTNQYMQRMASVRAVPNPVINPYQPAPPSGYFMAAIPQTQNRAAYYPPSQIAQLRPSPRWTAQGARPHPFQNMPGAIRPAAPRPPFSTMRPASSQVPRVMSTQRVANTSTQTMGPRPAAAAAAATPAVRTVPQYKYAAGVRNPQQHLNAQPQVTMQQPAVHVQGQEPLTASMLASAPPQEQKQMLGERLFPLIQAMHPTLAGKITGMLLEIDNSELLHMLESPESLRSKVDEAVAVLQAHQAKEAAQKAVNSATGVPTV
Rce1 inh: yeast Ras-converting enzyme inhibition. Q03530. yeast membranes, quenched prenylated peptide cleavage fluorescence. calls only. 0.27% of 290,000 active. AID 2563;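 active = fall in fluorescence gain of 50% or more versus controls, with final raw signal at or below 3038400; inconclusive = same 50% fall but final raw signal above 3038400; inactive = fall in fluorescence gain under 50%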;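 note: plate controls were neutral control wells for no effect and wells lacking membranes for full effect; tested at 10 µM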
eIF4H FP inh: inhibitors of RNA binding by human eIF4H; Q15056; eIF4H fluorescence polarization binding assay; inhibition, % at 35 µM; 0.94% of 290,000 active;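 active = 50% or more with normal probe brightness, or confirmed in later tests; inconclusive = above 50% with abnormal brightness, or retests that disagree; inactive = below 50% or failed in later tests; about a fifth of its hits are not listed in these tables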;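 note: calls also rest on retests at 20 µM and on dose response follow-up; 0% = protein and probe with vehicle and 100% = probe without protein; strong numbers were not always called active; many hits fall short of the cut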
UUG fidelity: alters start codon recognition fidelity in yeast | S. cerevisiae UUG-firefly luciferase reporter, luminescence/redox ratio | activity score, % at 18.7 µM | 0.13% of 350,000 active | AID 602363;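 active = replicate mean at a twofold rise or more, about +100% in these data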;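 note: firefly luciferase made from a UUG start codon reports start codon fidelity; reporter light over untreated wells divided by growth signal over untreated wells; some hits fall short of that in this replicate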
MT1-MMP act inh: inhibitors of human MT1-MMP activation | 0.061% of 360,000 active | GFP/RFP ratio change, % at 20 µM | HT1080 RFP-PRO-GFP cells, GFP/RFP ratio fluorescence, overnight; percent of plate control window, DMSO zero | P50281;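 active = GFP/RFP ratio change of at least 30% with cell ATP level not reduced by more than half and red fluorescence within 50% of control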; note: strong numbers were not always called active
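Test system: HT1080 cells expressing an RFP-PRO-GFP fluorescent reporter construct / Compound dosing: single-point 20 µM compound, 1% DMSO / Schedule: cells overnight before dosing, compound overnight, 37 °C, 5% CO2 / Evaluation: GFP/RFP fluorescence ratio / Control set: DMSO and RFP-L50D-GFP cell wells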
HIV Env fusion: blocks HIV Env-driven cell-cell fusion; HeLa-JRFL Env/CEM21 cell fusion, luciferase; inhibition, % at 12.3 µM; 1.1% of 360,000 active;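 active = mean replicate inhibition score of at least 50 and every replicate individually at or above 50; inconclusive = only one of the two criteria met; inactive = mean below 50 and not all replicates reaching 50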;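 note: 0% = plate neutral controls and 100% = maraviroc near 300 nM; one replicate is shown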
CSC inhib: blocks cancer stem cells; cancer stem cell-like cells viability, luminescence; inhibition, % at 7.5 µM; 1.1% of 300,000 active; AID 2717;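 active = mean at 75% or more and at least half the replicates too; inconclusive = mean and replicates disagree; tested in HMLE shEcad cells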;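 note: 0% = median of negative and 100% = median of positive control wells; the first replicate is given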
eIF4H FP inh retest: recorded beside eIF4H FP inh, whose call it bears; inhibition, %; compound at 20 µM; confirmation average;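 mean of two retest wells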
PABP FP inh retest: recorded beside PABP FP inh, whose call it bears; inhibition, %; compound at 20 µM; confirmation repeats;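 mean of two retest wells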
MT1-MMP act inh RFP: recorded beside MT1-MMP act inh, whose call it bears; RFP signal change, %; measured here: RFP expression control read;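 0 = vehicle wells; hits needed this value within 50% of zero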
* = called active by the depositor; i = inactive; u = inconclusive; x = no result given; + = active, no number. The order is random. About 3% of those tested had a hit in this group.

SMILES	PABP FP inh	Rce1 inh	eIF4H FP inh	UUG fidelity	MT1-MMP act inh	MT1-MMP act inh RFP	HIV Env fusion	CSC inhib	others
COc1ccc(NS(=O)(=O)c2cccc(-c3nnc4n3CCCCC4)c2)cc1	10	i	-7	-27	5	2	x	-4
O=c1c(Cl)c(N2CCN(S(=O)(=O)c3ccccc3)CC2)cnn1-c1ccccc1	6	i	2	-3	1	3	-18	x
CCOc1cc(N2CCOCC2)c(OCC)cc1NC(=O)CCC1CCCC1	19	i	-16	3	0	-2	16	-25
CCC(c1nnnn1Cc1ccc(F)cc1)N1CCN(C)CC1 (stereo unspecified)	-6	i	-6	x	0	6	-11	-5
Cc1ccc2nc(N(CCN3CCOCC3)C(=O)CCS(=O)(=O)c3ccccc3)sc2c1	x	i	x	3	1	2	-21	-19
Cc1cc(Cl)ccc1OCCCC(=O)OCC(=O)c1c(N)n(C)c(=O)n(C)c1=O	4	i	-9	-5	3	2	-5	-9
Cc1ccc(C)c(NC(=O)COc2coc(CN3CCc4ccccc43)cc2=O)c1	x	i	x	-19	2	-13	6	0
CN1CCN(C(=O)c2ccc3c(=O)n(CCc4ccccc4)c(=S)[nH]c3c2)CC1	x	x	x	-29	-9	-12	17	x
CCOc1ccc(-c2nc(-c3cccnc3)no2)cc1	-6	i	-4	-55	0	-10	-199	3
CC1CCCC(C)N1CC(O)COCC1COc2ccccc2O1 (stereo unspecified)	-10	i	0	-22	11	6	x	19
Cc1cccc(N(C(=O)CCC(=O)Nc2ccccn2)C(C(=O)NC(C)C)c2ccc(F)cc2)c1 (stereo unspecified)	7	i	-4	-10	-5	3	u	7
Cc1ccc([C@@H]2[C@@H]3C(=O)N(C)C(=O)[C@@H]3[C@]3(Cc4ccccc4)C(=O)N(Cc4ccccn4)CC(=O)N23)o1	0	i	-3	-21	5	2	-13	-15
CN(Cc1ccccc1)S(=O)(=O)c1ccc(Cl)c(C(=O)NCc2ccc3c(c2)OCO3)c1	-6	i	-3	-28	4	-4	-35	-4
O=C1Nc2ccccc2/C1=N\c1sc2c(c1C(=O)Nc1ccccc1)CCCC2	-17	i	15	-15	-10	3	-46	-1
CCN1C(=O)c2ccccc2Sc2ccc(C(=O)NC(C)C)cc21	44	i	7	-5	0	-4	-99	-22
COc1ccc(NC(=S)NNC(=O)Cn2nc(C(F)F)cc2C(F)F)cc1	8	i	6	-32	-11	1	-19	-7
Cc1cccc(OC(=O)c2ccc3nccnc3c2)c1	24	i	-6	0	2	2	2	6
COc1ccc(CCC(=O)NNC(=O)c2cc(Cl)ccc2OC)cc1OC	2	i	2	-13	1	4	-2	3
O=C(c1cn(-c2ccccc2)nc1-c1cccs1)N1CCN(c2ccccc2)CC1	-10	+	2	-4	-4	-15	x	58
CCOC(=O)Nc1ccc2c(c1)N(C(=O)CN(C)C)c1ccccc1CC2	-12	i	9	-28	0	4	5	10
CCc1c(C)nc2c(-c3ccccc3)c[nH]n2c1=O	1	i	2	6	-7	-5	-9	10
Cc1ccc(-c2csc3nc(C(C)C)oc(=O)c23)c(C)c1	2	i	-6	-7	1	2	4	8
O=C1OCC2=C1C(c1ccc(F)cc1)c1cc3c(cc1N2)OCO3 (stereo unspecified)	-10	x	-9	x	0	-10	-92	x
O=C(NC1=NCCS1)c1cccc(S(=O)(=O)N2CCOCC2)c1	x	x	x	-33	0	2	x	-4
COc1cccc(OC)c1C(=O)Nc1cc(C)on1	-4	i	-1	-3	1	2	x	-13

3 entries drawn at random from those above:
SMILES	PABP FP inh	Rce1 inh	eIF4H FP inh	UUG fidelity	MT1-MMP act inh	MT1-MMP act inh RFP	HIV Env fusion	CSC inhib	others
CCC(c1nnnn1Cc1ccc(F)cc1)N1CCN(C)CC1 (stereo unspecified)	-6	i	-6	x	0	6	-11	-5
CCc1c(C)nc2c(-c3ccccc3)c[nH]n2c1=O	1	i	2	6	-7	-5	-9	10
CN1CCN(C(=O)c2ccc3c(=O)n(CCc4ccccc4)c(=S)[nH]c3c2)CC1	x	x	x	-29	-9	-12	17	x

Continued.
SMILES	PABP FP inh	Rce1 inh	eIF4H FP inh	UUG fidelity	MT1-MMP act inh	MT1-MMP act inh RFP	HIV Env fusion	CSC inhib	others
COc1ccc(Cl)cc1C(=O)NCc1ccco1	1	i	-6	-15	1	2	-22	-6
OC1(Cc2ccn[nH]2)CCCCC1	-7	i	-8	x	x	x	x	-5
Cc1[nH]c(C)c(S(=O)(=O)NCc2ccco2)c1C(=O)N1CCCCC1	2	i	-3	-16	5	7	-1	-11
CN(C)C=Nc1ncc2c([nH]c3ccccc32)c1C#N	5	i	5	-13	0	-17	x	x
CCc1c(C(=O)OCc2ccccc2)[nH]c(C)c1C	-9	x	-1	x	0	-6	-51	18
Cc1cccn2c(=O)c3cc(C(=O)NC4CCCC4)c(=N)n(CC4CCCO4)c3nc12 (stereo unspecified)	3	i	1	15	2	1	9	-8
CC(C)CC(=O)c1c[nH]c(C(=O)NCCCn2ccnc2)c1	-2	i	-1	-8	2	-1	20	4
CC(=O)N=C(N)Sc1nc2ccccc2[nH]1	11	i	-7	6	-2	2	-265	1
CCn1nc(NS(=O)(=O)c2ccc(NC(C)=O)cc2)c2cc3ccc(C)cc3nc21	3	i	-2	-10	4	7	0	-3
COc1ccc(C2/C=C\CN(C(=O)c3ccc(C)cc3)CC(=O)N2Cc2ccc(F)cc2)cc1 (stereo unspecified)	13	i	-7	-12	-5	-7	-28	-5
Cc1ccc(NC(=O)CSCC(=O)N(C)CC(=O)Nc2cccc3ccccc23)cc1	x	i	x	-4	2	2	5	-2
c1ccc(-c2nnc3ccc(N4CCC5(CC4)OCCO5)nn23)cc1	3	i	-17	-20	2	1	3	-10
Cn1c(CN2CCCCC2)nc2cc(NC(=O)c3ccc(F)cc3)ccc21	-10	x	-1	-29	9	-10	27	7
O=C(Nc1c[nH]c(=O)[nH]c1=O)c1ccc([N+](=O)[O-])cc1	2	i	10	x	0	-2	-11	-2
CCOC(=O)c1ccc(Nc2nc(C)cc(=O)[nH]2)cc1	-4	i	-3	-12	3	3	x	-17
CCc1nn(-c2cc(Cl)ccc2OC)c2c1C(=O)CCC2	-4	i	-6	-4	0	0	-50	11
CCOC(=O)N1CCC(NC(=O)CCC(=O)c2ccccc2)CC1	0	i	7	x	4	3	x	8
CC(=O)Oc1c(-c2ccco2)oc2ccccc2c1=O	-2	i	4	x	-129	2	-2	-1
CCN(C(=O)CSc1nnc2ccccn12)C1CCS(=O)(=O)C1 (stereo unspecified)	-2	i	1	-25	-3	-2	2	-6
Cc1cc(C(=O)CN2C(=O)NC(CC(C)C)C2=O)c(C)n1C1CC1 (stereo unspecified)	x	x	x	-2	0	-2	7	-17
O=C(CCNS(=O)(=O)c1ccccc1C(F)(F)F)N1CCN(S(=O)(=O)c2cccc(Cl)c2)CC1	x	i	x	x	-2	-3	9	-3
CCOC(=O)c1cnc2nc(SC)nn2c1N	1	i	-4	x	-1	4	4	-2
COC(=O)C1=C(C)N(CCc2ccc(OC)c(OC)c2)C(=O)/C1=C\N(C)C	0	i	-4	-4	5	2	-19	-17
O=C(CCCOc1cccc(Br)c1)NC1CCC(O)CC1 (stereo unspecified)	-9	i	-10	7	4	1	-1	1
CCN1CCN(C(C)CCc2ccccc2)CC1 (stereo unspecified)	-2	i	2	0	-3	2	4	7
Next section.
SMILES	PABP FP inh	Rce1 inh	eIF4H FP inh	UUG fidelity	MT1-MMP act inh	MT1-MMP act inh RFP	HIV Env fusion	CSC inhib	others
CCN(C(=O)CN1C(=O)NC2(CCCc3ccccc32)C1=O)c1ccc(F)cc1 (stereo unspecified)	x	x	x	3	-6	-1	-1	-14
CCCCCC/C=N/Nc1nnc(Cc2ccc(OC)c(OC)c2)c(=O)[nH]1	-1	i	5	-20	-4	-1	10	3
CCOc1ccccc1N(CC(=O)Nc1ccccc1C(=O)OC)S(C)(=O)=O	-3	i	-2	-17	1	2	-9	-21
Cn1ncc(S(=O)(=O)Cc2ccccc2)c(Cl)c1=O	4	i	-9	-11	-4	3	-7	-9
COc1ccc(S(=O)(=O)N(C)CC(=O)Nc2ccccc2C(F)(F)F)cc1	4	i	2	3	-1	0	x	14
CCC(=O)Nc1ccc(C(=O)COC(=O)C(CCSC)NC(=O)COc2ccccc2)cc1 (stereo unspecified)	x	i	x	-16	-4	-1	1	-3
O=C(Oc1ccc(/C=N/Nc2nc(N3CCCCC3)nc(N3CCCCC3)n2)cc1)c1ccco1	-3	i	-3	-16	0	-5	-9	-12
CC(=O)c1cccc(NC(=O)/C(=C\c2ccco2)NC(=O)c2ccco2)c1	0	i	-8	2	2	7	-3	-2
COc1ccc(CC(=O)N2CCN(c3ccccc3OC)CC2)cc1	1	i	-6	-4	5	0	12	-7
Cc1ccc(-c2cc(C(=O)n3cnc4ccccc43)c3ccccc3n2)cc1C	1	i	0	10	-2	-1	x	18
COc1ccc2sc(N3C(=O)CC(Cc4cccc(C)c4)C3=O)nc2c1 (stereo unspecified)	-2	i	-6	-9	-1	1	x	-2
COc1ccc(CCN(Cc2cc3ccc(C)cc3n3nnnc23)C(C)=O)cc1OC	9	i	3	x	1	-3	14	-13
COc1ccc(C(=O)Nc2sc3c(c2C#N)CCN(C(C)=O)C3)cc1	3	i	56	13	-6	-4	-36	18	eIF4H FP inh retest=-3;PABP FP inh retest=1

7 entries out of the list, ordered by molecular weight, smallest number first:
SMILES	PABP FP inh	Rce1 inh	eIF4H FP inh	UUG fidelity	MT1-MMP act inh	MT1-MMP act inh RFP	HIV Env fusion	CSC inhib	others
COc1ccc(CC(=O)N2CCN(c3ccccc3OC)CC2)cc1	1	i	-6	-4	5	0	12	-7
COc1ccc(C(=O)Nc2sc3c(c2C#N)CCN(C(C)=O)C3)cc1	3	i	56	13	-6	-4	-36	18	eIF4H FP inh retest=-3;PABP FP inh retest=1
CC(=O)c1cccc(NC(=O)/C(=C\c2ccco2)NC(=O)c2ccco2)c1	0	i	-8	2	2	7	-3	-2
COc1ccc2sc(N3C(=O)CC(Cc4cccc(C)c4)C3=O)nc2c1 (stereo unspecified)	-2	i	-6	-9	-1	1	x	-2
CCCCCC/C=N/Nc1nnc(Cc2ccc(OC)c(OC)c2)c(=O)[nH]1	-1	i	5	-20	-4	-1	10	3
CCN(C(=O)CN1C(=O)NC2(CCCc3ccccc32)C1=O)c1ccc(F)cc1 (stereo unspecified)	x	x	x	3	-6	-1	-1	-14
O=C(Oc1ccc(/C=N/Nc2nc(N3CCCCC3)nc(N3CCCCC3)n2)cc1)c1ccco1	-3	i	-3	-16	0	-5	-9	-12

Compound activity from PubChem BioAssay.
